Screening results deposited in PubChem by Fisher Drug Discovery Resource Center.
NPYLR7 ag: mosquito NPYLR7 agonism. 0.15% of 270,000 active. HEK293T NPYLR7/Galpha15, GCaMP6s calcium fluorescence. activation, % at 10 µM. AID 1259423; in the data active = activation above about 40%;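 note: 0% = vehicle and 100% = reference agonist at the receptor; some compounds past the cut are filed as inactive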
NPYLR7 ag max-min: also measured in NPYLR7 ag; calls as there; activation, %; measured here: Max-Min RFU normalised activation; some inactives read as strong as hits;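 span of the calcium signal over five minutes; 0% = vehicle and 100% = native peptide agonist; compound fluorescence can raise it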
* hit, by the source's call; & = joins results of further samples.

Each structure is followed by: NPYLR7 ag, NPYLR7 ag max-min
> CC1(C(=O)NCc2ccc(C(F)(F)F)cc2)CCN1Cc1cc2ccccc2o1 (configuration not stated)
→ 4, -3
> Cc1oc(-c2cccc(C(F)(F)F)c2)nc1CN(C)Cc1cnc(N)nc1
→ 4, 1
> OCCN(Cc1cccc2ccccc12)CC1CC1
→ -2, -7
> O=C(N[C@H](CO)Cc1ccccc1)C(=O)c1ccc(C2CCCCC2)cc1
→ 3, 0
> CCOc1nc(-c2ccccc2C)n(-c2ccc(NC(=O)c3ccco3)cc2)n1
→ 14, 11
> CCn1c(SC(C)C(=O)Nc2ccccc2F)nnc1-c1ccoc1C (configuration not stated)
→ -2, -4
> CCN(CCC(F)(F)F)S(=O)(=O)c1ccc2c(c1)ncn2C
→ 7, 4
> CCOC(=O)CCCCCC(=O)Nc1cc(-c2onc3c2CCc2cc(OC)ccc2-3)ccc1C
→ 1, -2
> Cc1c(C#N)c([N+](=O)[O-])nn1Cc1cccc(C(F)(F)F)c1
→ -4, -6
> COc1cc(C)ccc1Oc1cc(N2CCN(CC(=O)N3CCCC3)CC2)ncn1
→ -12, -9
> CCC(=O)N1CCSC12C(=O)N(Cc1c(F)cccc1F)c1ccc(OC)cc12 (configuration not stated)
→ -1, 7
> CCc1ccc(-c2cc3c(SCC(=O)Nc4ccc(F)cc4)nccn3n2)cc1
→ 1, -1
> Cn1nc(C(C)(C)C)cc1C(=O)N1CCCC(c2cc(C(=O)NCc3ccccc3)no2)C1 (configuration not stated)
→ 1, -1
> CC(C)CCC(C)NC(=O)c1cncn1-c1cccc(-c2ccc(Oc3ccccc3)cc2)c1 (configuration not stated)
→ 0, 0
> CCn1cc(NC(=O)NCc2cccnc2)c2ccccc21
→ 1, 2
> Cc1nnc(NC(=O)C23CC4CC(CC(C4)C2)C3)s1
→ 3, 0
> O=C(NCCc1ccc(F)cc1)c1ccc(-c2ccc3c(c2)OCO3)s1
→ -2, 11
> CC(C)SCC(=O)N1CCNCC1C(=O)NCc1cccnc1 (configuration not stated)
→ 1, -4
> CC(=O)N(C)C1CCN(S(=O)(=O)NCc2ccccc2)C1 (configuration not stated)
→ 0, -4
> COc1cccc(OCc2nc(C(=O)N(C)Cc3ccon3)co2)c1
→ -2, -8
> COCCN(Cc1cccs1)C(=O)CN1CCCCCC1=O
→ -3, -6
> O=C(NCCc1ccccn1)c1ccc(CSc2nc(-c3ccccc3)cc(N3CCN(c4ccccc4Cl)CC3)n2)o1
→ 4, 16
> Cc1ccc(S(=O)(=O)c2nnn(-c3cccc(Cl)c3)c2C)cc1
→ 19, 17
> CC(=O)C1=C(O)c2ccccc2S(=O)(=O)N1
→ 0, -2
> COc1ccc(OC)c(NC(=O)NCCN2CCCCCC2)c1
→ -9, -13
> Cc1cc(=O)n2c(-c3cccc(NC(=O)c4cccc5ccccc45)c3)csc2n1
→ 10, 2
> COc1cn(CC(=O)NC2CCCCC2)c(CSc2nc(C)cc(C)n2)cc1=O
→ -1, -8
> CCCC(=O)NC(=S)c1c(C)n(C)n(-c2ccccc2)c1=O
→ -10, -9
> CCCN(CCC)c1nc2ccccc2n(CC(=O)N2CCC(C)CC2)c1=O
→ 8, 5
> CNc1ccc2ncc(-c3cccc(O)c3)n2n1
→ 12, 8
> CC(C)C(=O)Nc1ccc(SCc2ccccn2)nn1
→ 4, 3
> COc1ccccc1-n1c(O)c(C2=c3ccccc3=NC2=O)sc1=S
→ 6, 4
> CC(NC(=O)c1cc2ccccc2c(Cl)n1)(C1CC1)C(F)(F)F (configuration not stated)
→ 0, -1
> Cc1nc2ccc(NCC(=O)N3C(C)CCCC3C)cc2s1 (configuration not stated)
→ 0, -3
> CNCC(=O)NCCc1nc2sc(C)c(C)c2c(=O)[nH]1
→ 17, 15
> CCOc1cc(/C=C2/SC(=Nc3ccccc3)NC2=O)ccc1OC
→ -9, -14
> COC(=O)c1c(-c2cccs2)csc1NC(=O)CSc1nnc2sc3ccccc3n12
→ -2, -5
> Cc1ccccc1-n1nc2c(c1NC(=O)c1ccccc1C(F)(F)F)CS(=O)(=O)C2
→ -1, -3
> COc1cccc(C2CCCCN2S(=O)(=O)c2c(C)noc2C)c1 (configuration not stated)
→ 2, 1
> CN(C)CCNC(=O)c1cccc(-c2ccnc3n[nH]c(-c4cccc(C(F)(F)F)c4)c23)c1
→ 9, 9

Whole records, looked up by structure:
Shown for `Cc1cc(=O)n2c(-c3cccc(NC(=O)c4cccc5ccccc45)c3)csc2n1` → NPYLR7 ag: 10; NPYLR7 ag max-min: 2
Shown for `COc1cn(CC(=O)NC2CCCCC2)c(CSc2nc(C)cc(C)n2)cc1=O` → NPYLR7 ag: -1; NPYLR7 ag max-min: -8
Shown for `COCCN(Cc1cccs1)C(=O)CN1CCCCCC1=O` → NPYLR7 ag: -3; NPYLR7 ag max-min: -6

The listing continues:
Each structure is followed by: NPYLR7 ag, NPYLR7 ag max-min
> CCOC(=O)C(c1cc(OC)ccc1OC)C1C=CC(NC(=O)c2cc(C)oc2C)C1 (configuration not stated)
→ 19, 21
> CC(C)Cn1c(=O)c2c(nc3n2CCCN3c2ccc(Br)cc2)n(C)c1=O
→ 4, -1
> COc1ccc(OC)c(-c2ccc(=O)n(Cc3cccc4ccccc34)n2)c1
→ 14, 11
> CCCCNC(=O)CC1SC(N)=NC1=O (configuration not stated)
→ 3, 1
> Cc1nc(CN2CCCN(CC(=O)N3CCOC(C)C3)CC2)no1 (configuration not stated)
→ -2, -2
> O=c1ccc(-c2ccco2)nn1CCCNS(=O)(=O)/C=C/c1ccccc1
→ 6, 3
> NC(=O)c1cc(-n2ccc(-c3cnccn3)n2)cs1
→ 10, 0
> CCc1ccc(OCC(=O)N2CCCn3nc(C(=O)N4CCCC4)cc3C2)cc1
→ 2, -8
> O=C(NN(C(=O)C12CC3CC(CC(C3)C1)C2)C1CCS(=O)(=O)C1)C12CC3CC(CC(C3)C1)C2 (configuration not stated)
→ 8, 6
> CCOC(=O)c1c(NC(=O)Cc2cccs2)sc(C(=O)Nc2ccc(OC)cc2)c1C
→ 11, 8
> Cc1nc(C2CN(C(=O)c3ccn(C)c(=O)c3)CCO2)n[nH]1 (configuration not stated)
→ 5, 5
> COc1ccc(C(=O)N(Cc2cc(NC(=O)c3cccs3)ccc2N(C)C)C2CCCCC2)cc1
→ 8, 22
> CCC(C)N(Cc1cc(NC(=O)CC(C)C)ccc1N(C)C)C(=O)COC (configuration not stated)
→ 25, 24
> COc1cccc(C(=O)COC(=O)c2cc3ccccc3[nH]2)c1
→ 7, 3
> C=CCn1c(=O)c2c(nc3n2CC(C)=NN3Cc2ccc(F)cc2)n(C)c1=O
→ -7, -12
> COCCc1noc(-c2ccc(=O)n(CC(=O)Nc3c(C)cc(C)cc3C)c2)n1
→ -5, -7
> CCOC(=O)CCC(=O)Nc1nnc(SCc2cccc([N+](=O)[O-])c2)s1
→ 29, 33
> C=CC[C@@H]1CC=C[C@@H](C)N1C(=O)C(=O)c1ccco1
→ 26, 20
> O=C(NCc1ccoc1)c1ccc(-c2ccccc2F)s1
→ -4, -4
> CC1(C)CC2(CC(C)(c3csc(N)n3)OC2=O)C(=O)O1 (configuration not stated)
→ 1, 2

The list goes on, starting with the last 5 of the part before.
Each structure is followed by: NPYLR7 ag, NPYLR7 ag max-min
> COCCc1noc(-c2ccc(=O)n(CC(=O)Nc3c(C)cc(C)cc3C)c2)n1
→ -5, -7
> CCOC(=O)CCC(=O)Nc1nnc(SCc2cccc([N+](=O)[O-])c2)s1
→ 29, 33
> C=CC[C@@H]1CC=C[C@@H](C)N1C(=O)C(=O)c1ccco1
→ 26, 20
> O=C(NCc1ccoc1)c1ccc(-c2ccccc2F)s1
→ -4, -4
> CC1(C)CC2(CC(C)(c3csc(N)n3)OC2=O)C(=O)O1 (configuration not stated)
→ 1, 2
> CCn1cc(-c2cnc3ccccc3c2)c(C)n1
→ -2, 10
> COc1ccc(C(=O)N(CCN(C)C)Cc2c(-c3ccc(F)cc3)noc2N2CCOCC2)cc1
→ 7, 11
> O=C(NCCOc1ccccc1F)c1ccc2nc[nH]c2c1
→ 4, -4
> CCOC(=O)C1CCN(C(=O)C2COC3(CCN(C(=O)c4cccc(C)c4)CC3)N2C(=O)c2ccccc2)CC1 (configuration not stated)
→ 6, 10
> CCNC(=S)NCCc1cc2ccc(C)c(C)c2[nH]c1=O
→ 6, 5
> COC(=O)c1sc2cc(NC(=S)Nc3ccn(C)n3)ccc2c1Cl
→ -12, -15
> CCC(C)CN(CC(=O)N1CCc2sccc2C1COc1cccc(F)c1)C(=O)c1ccco1 (configuration not stated)
→ 0, 8
> CCCCN(CC(=O)N(CCCC)Cc1cccn1Cc1ccc(Br)cc1)C(=O)/C=C/c1ccccc1
→ 2, 4
> Cc1cc(C)c(CCNC(=O)C(C)(C)NS(C)(=O)=O)c(C)c1
→ 0, -1
> CCn1c(SCc2ccc(C(=O)Nc3ccc(C(C)C)cc3)cc2)nnc1-c1ccc([N+](=O)[O-])cc1
→ 22, 32
> O=C(CNCc1ccccc1Cl)Nc1ccc(Br)cc1
→ 12, 10
> C=CCn1c(C)c(C)n2c3c(=O)n(Cc4ccccc4Cl)c(=O)n(C)c3nc12
→ 1, 0
> O=C1NCCN(S(=O)(=O)c2cc(F)cc(F)c2)C1c1ccccc1 (configuration not stated)
→ 5&-7, 5&-8
> C/C=C(\C)C(=O)N1CCc2ccccc2C1c1ccccc1F (configuration not stated)
→ -4, 3
> Cc1cc(N2C(=O)C3CC=CCC3C2=O)ccc1N1C(=O)c2ccc(Cl)cc2C1=O (configuration not stated)
→ -15, -19
> OCC1(CCOc2ccccc2)CCN(c2ccc(Cl)cn2)CC1
→ 1, 5
> COc1ccc(N2CCC(Nc3cnn(C)c(=O)c3Cl)CC2)cc1
→ 1, 0
> O=S1(=O)CCNCN1
→ -27, -28
> CCOc1ccc(N2CCn3c(SCc4cccc(C)c4)nnc32)cc1
→ 4, 2
> CCN(C(=O)CSc1nnc(NC2CC2)s1)C1CCS(=O)(=O)C1 (configuration not stated)
→ 7, 9
> CCc1cnc(C)nc1N1CCC(N2CCCC2=O)CC1
→ -5, -7
> Cc1c(N(C)S(=O)(=O)c2cccc(C(=O)Nc3cccnc3)c2)c(=O)n(-c2ccccc2)n1C
→ 10, 15
> CCCCC(=O)Nc1c(-c2ccccc2)nc2cc(C)ccn12
→ -8, 1
> O=C(c1cc(COc2cccc(C(F)(F)F)c2)on1)N1CCC(c2ccncc2)CC1
→ 3, 0
> CCCCOc1ccc(OCCCN2CCOCC2)cc1
→ 9&-14&-3, 8&2&-6
> CCc1ccc[n+](C2=C(c3c(C)[nH]n(-c4ccc(Cl)c(Cl)c4)c3=O)C(=O)N(C(C)C)C2=O)c1
→ -5, 1
> CS(=O)(=O)c1ccc(NC(=O)c2ncc(Cl)c(Cl)c2Cl)cc1
→ -5, -6
> CCOc1ccc(-c2ccc(C(=O)NCc3ccc(Cl)cc3)s2)cc1
→ 4, 1
> Cc1ccnc(Nc2ccc(NCCNC(=O)Nc3ccc4c(c3)OCCO4)nn2)c1
→ 11, 1
> Cc1cccc(Nc2cc3c(cn2)ncn3Cc2cccnc2)c1
→ -2, 0
> COCCN(CC(=O)N(Cc1cccn1Cc1cccc(OC)c1)C(C)(C)C)C(=O)c1ccc(C)c([N+](=O)[O-])c1
→ -7, 3
> Cc1nc2c(c(=O)n1C)CCN(C(=O)NCc1ccco1)CC2
→ 5, 4
> Cc1cc(C)c(C)c(OCCCNC(=O)N2CCN(S(=O)(=O)c3ccccc3[N+](=O)[O-])CC2)c1
→ 17, 15
> CC(C)N(CC1CCCN(C(=O)C(C)(C)n2cc(Cl)cn2)C1)C(=O)OC(C)(C)C (configuration not stated)
→ -3, -4
> Cc1c[nH]c(CNC(=O)CCNC(=O)c2ccccc2F)c(C)c1=O
→ 8, 5
> CC(C)(C)C(=O)NCCSc1ncc(-c2ccc(Cl)cc2)[nH]1
→ 2, 0
> COc1ccc(N2C(=O)CN(C(=O)CCc3ccccc3OC)CC2(C)C)cc1
→ 1, -2
> COCC(=O)Nc1ccc(-c2cc(OC)cc(OC)c2)cc1
→ 7, 2
> CCCC(NC(=O)c1csc(C)n1)c1ccc(F)cc1F (configuration not stated)
→ 1, 0
> CC(C(=O)NC1CC1)S(=O)(=O)Cc1cccc(F)c1 (configuration not stated)
→ -4, -6
> COCCNC(=O)c1c(N)n(/N=C\c2cccc(C)c2)c2nc3ccccc3nc12
→ 12, 3
> N#Cc1cccc(OC2CC3CCC(C2)N3C(=O)c2ccc(CSc3ccc(Cl)c(Cl)c3)cc2)c1 (configuration not stated)
→ 16, 2
> Cc1ccccc1-c1ccc(-n2cncc2C(=O)NCc2c(C)cc(Cl)cc2Cl)cc1
→ 0, -3
> CCOc1ccc(-n2ccn3c(CC(C)CC(=O)Nc4ccc(OC)cc4)nnc3c2=O)cc1 (configuration not stated)
→ 0, -8
> Cc1cccc(C)c1OC1CCN(c2cncc(C(N)=O)n2)CC1
→ 2, 1
> Cc1ncc(-c2c(-c3ccccc3)ncn2CC(O)Cc2ccccc2)[nH]1 (configuration not stated)
→ 8, 2
> O=C(c1ccco1)N1CCN(C(=O)[C@H]2c3ccccc3C(=O)N(CCc3c[nH]c4ccccc34)[C@H]2c2ccccc2)CC1
→ -7, -15
> COc1ccc(C(=O)N2CCCC(n3cc(C(=O)NCCO)nn3)C2)o1 (configuration not stated)
→ 0, -1
> CNC(=S)NN=Cc1c(F)c(F)c(F)c(F)c1F
→ 2, -3
> CC(NC(=O)c1ccc(F)cc1F)(C(N)=O)c1ccccc1 (configuration not stated)
→ 5, 5
> COCCN(Cc1nccs1)C(=O)c1oc2cc(C)ccc2c1C
→ 19, 8
> CCn1nnc2c(=O)n(CC(=O)c3ccc(OC)cc3)cnc21
→ 2, 16
> CC(=O)Nn1ccc2c(nnc3c(-c4ccc(Cl)cc4)cnn32)c1=O
→ 1, 1
> CCOc1ccccc1NC(=O)Cn1c(=O)n(CC2CCC(C(=O)NC)CC2)c(=O)c2sccc21 (configuration not stated)
→ 4, 3
> Cc1cc(NC(=O)CN2CCCCC2C)ccc1N1CCCC1 (configuration not stated)
→ 11, 8
> O=C1c2ccccc2CSc2sccc21
→ -5, -7
> CN(C/C=C/c1ccccc1)C(=O)c1cc(Cn2ccc3ccccc32)[nH]n1
→ 27, 16

The list is partial (hit frequency here may not be typical).
